Screens: PubChem, National Center for Advancing Translational Sciences (NCATS)
miR-21 FLuc – miR-21 reporter, rising signal; HeLa miR-21 FLuc reporter, luciferase, 48 h; Potency, µM (top dose mostly 38.3 µM), for the others: top-dose reporter change, positive = more light; 340,000 tested, under 10 active; AID 2288; active = well fitted rising curve with a large enough effect; inconclusive = small, poorly fitted or top-dose-only effect; inactive = no such curve, though single readings can be large or run the other way;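 also: % of control where 0% means no effect; miR-21 action dims this reporter so a rising signal means less miR-21 action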
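HeLa cells stably expressing CMV-driven firefly luciferase with a downstream miR-21 binding sequence, endogenously expressing miR-21, were treated with titrations (up to about 40uM final) for 48 hours at 37 degree Celsius. Luciferase luminescence was read after lysis.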
Starred values were filed as active, the others as inactive; u = inconclusive. Not all compounds are listed; count on the stated rates, not on these rows.

SMILES	miR-21 FLuc
CCOc1ccc(NC(=O)CC2C(=O)N(c3ccccc3)C(=O)N2CCc2sccc2C)cc1 (stereo not given)	10%
CCc1ccc(NC(=O)CSC2=Nc3ccccc3C3=NC(CC(=O)NC4CCCCC4)C(=O)N23)cc1 (stereo not given)	-3%
Cc1ccc(-c2nnc3c4ccccc4c(C)nn23)cc1NC(=O)c1ccccc1	-17%
Cc1ccc(-c2nn3c(-c4ccccc4)nnc3c3ccccc23)cc1	3%
Cc1cc(C)cc(OCCSc2nc3ccc(NC(=O)COc4ccccc4)cc3s2)c1	13%
O=C(Nc1ccc2nc(SCc3ccccc3)sc2c1)c1cccc(F)c1	-18%
COc1cccc(CNC(=O)c2ccc3c(=O)n4nc(Nc5ccccc5)sc4nc3c2)c1	27%
CCn1cc2nc(SCC(=O)Nc3ccccc3C(F)(F)F)n(Cc3ccc(C)cc3)c(=O)c2n1	21%
COc1ccc(NC(=O)C2CCN(S(=O)(=O)c3ccc4[nH]c(=O)ccc4c3)CC2)cc1Cl	-8%
COc1ccc(CCN2C(=O)c3oc4ccc(F)cc4c(=O)c3C2c2ccc(C(C)(C)C)cc2)cc1 (stereo not given)	-2%
O=C(CCC1N=C2c3ccccc3N=C(SCc3ccccc3F)N2C1=O)NCc1ccc(F)cc1 (stereo not given)	9%
CCc1ccccc1NC(=O)c1ccc2[nH]c(C)c(C)c2c1	-82%
O=C(Cn1c(=O)n(-c2ccccc2)c(=O)c2c3c(sc21)CCCC3)Nc1ccc(F)cc1F	0%
Cc1ccccc1-c1nn2c(=O)cc(CN3CCN(C(=O)c4ccccc4Br)CC3)nc2s1	-9%
CCOC(=O)c1cnc2ccc(Br)cc2c1NCCN1CCOCC1	-3%
CCN(C(=O)C1CCN(S(=O)(=O)c2cc(Br)cc3c2N(C(C)=O)CC3)CC1)c1cccc(C)c1	-2%
Cc1nc2ccc(S(=O)(=O)CCC(=O)Nc3ccc(Cl)cc3)cc2s1	-1%
CCCN1CCN(CCCNC(=O)c2c(C)nn(-c3ccc(F)cc3)c2-n2cccc2)CC1	0%
CCOc1ccc(C(c2c(O)cc(C)n(CCOC)c2=O)N2CCN(c3ccccc3)CC2)cc1 (stereo not given)	-6%
Cc1ccc(C)c(NC(=O)CCCN2C(=O)C(c3ccccc3)Oc3cccnc32)c1 (stereo not given)	2%
Cc1ccc(NC(=O)c2nnn(CC(=O)Nc3ccc(C)c(Cl)c3)c2N)c(C)c1	-19%
COc1ccc(C)cc1NC(=O)CSc1nc2ccccc2nc1N1CCOCC1	7%
CCOc1ccccc1NC(=O)NC(C)c1ccc2c(c1)OCO2 (stereo not given)	-2%
COc1cc(-c2cc3n(C)c(C)c(CCC(=O)NCc4ccccc4)c(=O)n3n2)cc(OC)c1OC	5%
COc1ccc(-n2c(=O)c3ccc(C(=O)NCc4ccc(C)cc4)cc3n(Cc3cccc(Cl)c3)c2=O)cc1	0%
Other entries follow.
SMILES	miR-21 FLuc
COc1cc(-c2nnc(SCCOc3ccccc3)o2)cc(OC)c1OC	-1%
CC(Sc1nc2c([nH]c3ccccc32)c(=O)n1-c1ccccc1)c1ccccc1 (stereo not given)	u
Cc1cc(F)ccc1NC(=O)CCS(=O)(=O)c1ccc2c(c1)CC(C)N2C(=O)C1CC1 (stereo not given)	1%
O=C(Cc1ccc(F)cc1)NCc1nc2cccnc2n1Cc1ccc(F)cc1	-4%
Cc1csc2nc(COC(=O)c3ccccc3NC(=O)c3ccc(F)cc3)cc(=O)n12	3%
CCc1ccccc1NC(=O)Cn1c(=O)n(CCc2ccccc2)c(=O)c2ccccc21	-6%
Fc1ccc2[nH]c(-c3cccs3)cc2c1	-25%
Cc1ccc(NC(=O)CSc2nnc(C)s2)c(C)c1	4%
COc1ccc(NC(=O)Cn2c(=O)c3ccccc3n3nncc23)c(OC)c1	4%
COc1ccc(-n2cc(-c3ccc4c(c3)OCO4)n(CC(=O)Nc3cccc(C)c3C)c2=O)c(OC)c1	u
COc1ccc(C2=C(C)C(=O)N(Cc3ccc(C(=O)NCc4ccccc4C)cc3)S2(=O)=O)cc1	6%
CC(=O)Nc1ccc(NC(=O)C2CCCN(S(=O)(=O)c3ccc4c(c3)CCCC(=O)N4)C2)cc1 (stereo not given)	4%
Cc1nn2c(=O)cc(COc3ccc(/C=C(\C#N)C(=O)Nc4ccc(F)cc4)cc3)nc2s1	2%
COc1ccc(CCNC(=O)c2c(C)nn(-c3ccc(F)cc3)c2-n2cccc2)c(OC)c1OC	20%
COc1ccc(OC)c(NC(=O)CSc2c3c(nc4cc(Cl)ccc24)CCCC3)c1	-7%
COc1ccc(CCNC(=O)CSc2ncc3c(n2)-c2cc(Cl)ccc2N(Cc2ccccc2)S3(=O)=O)cc1OC	1%
Cc1cccc(N2CCN(S(=O)(=O)c3ccc4oc(=O)c5ncn(C)c5c4c3)CC2)c1C	-1%
COc1ccc(N2CCN(CCCNC(=O)Nc3ccccc3Cl)CC2)cc1	-4%
COCCN1C(=O)c2oc3ccc(C)cc3c(=O)c2C1c1ccc(C(=O)OC)cc1 (stereo not given)	0%
CCOc1ccc(N(CC)C(=O)CCc2nc(-c3ccccc3F)no2)cc1	3%
COC(=O)c1cnn(-c2ccc(C(=O)Nc3cccc(C(C)=O)c3)cc2)c1N	1%
CCOc1ccc(NC(=O)CSC2=Nc3ccccc3C3=NC(CC(=O)NCc4ccc5c(c4)OCO5)C(=O)N23)cc1 (stereo not given)	-22%
COc1ccc(C(=O)CC2(O)C(=O)N(CCc3ccccc3)c3ccc(Br)cc32)cc1OC (stereo not given)	29%
CCOC(=O)c1cccc(NC(=O)Cn2ncc3c(=O)oc4ccccc4c32)c1	2%
CCOc1ccc(C(=O)Nc2cccc(NC(=O)c3ccc(C(C)(C)C)cc3)c2)cc1Br	-24%

Of the compounds above, 2 have a tert-butyl group:
SMILES	miR-21 FLuc
COc1ccc(CCN2C(=O)c3oc4ccc(F)cc4c(=O)c3C2c2ccc(C(C)(C)C)cc2)cc1 (stereo not given)	-2%
CCOc1ccc(C(=O)Nc2cccc(NC(=O)c3ccc(C(C)(C)C)cc3)c2)cc1Br	-24%

The listing continues:
SMILES	miR-21 FLuc
O=C(Cn1nc(-c2ccc(Cl)cc2)ccc1=O)NCc1ccccc1Cl	-2%
CN(C(=O)c1ccc2c(c1)N(Cc1cccc(Cl)c1)C(=O)c1ccccc1S2(=O)=O)C1CCCCC1	15%
Cc1ccccc1NC(=O)c1ccc2c(c1)c(C)c(C)n2Cc1ccccc1	9%
O=C(CSc1ncc(-c2ccccc2)[nH]1)Nc1ccc(F)cc1F	-29%
Cn1c(=O)c2cc(C(=O)NC3CCCCCC3)sc2c2ccccc21	-2%
CCn1cc(C(=O)NCCc2ccc(Cl)cc2)c(=O)c2cc(S(=O)(=O)N3CCOCC3)ccc21	-8%
CC(=O)N1c2ccccc2C(=O)C1N1CCN(c2cccc(C)c2C)CC1 (stereo not given)	1%
Cc1ccc(Cl)cc1-n1c(=O)cc(N2CCN(c3ccccc3)CC2)[nH]c1=O	2%
Cc1ccc(CNC(=O)c2cccc(Nc3nc4ccccc4n4nnnc34)c2)cc1	-16%
CCOC(=O)CSc1nc2cc3c(cc2c(=O)n1CCCCCC(=O)NCc1ccc(OC)cc1)OCO3	-3%
COc1ccc(-c2cc(C(F)(F)F)nc(NCc3ccccc3)n2)cc1	6%
CCOC(=O)c1c(C)[nH]c(C)c1S(=O)(=O)N1CCN(c2ccccc2OC)CC1	1%
CCCC(=O)N1CCN(c2nc3c(OC)ccc(C)c3s2)CC1	1%
CCN(Cc1ccccc1)Cc1c(O)ccc2c(=O)c(-c3ccc(Cl)cc3)c(C(F)(F)F)oc12	4%
CCN(CC)CCNC(=O)c1nn(C)c2c1CS(=O)(=O)c1ccccc1-2	1%
COC(=O)c1ccc(OCC2c3cc(OC)c(OC)cc3CCN2C(=O)c2cccc(C)c2)cc1 (stereo not given)	14%
CC(C)CC(=O)NCC(c1ccc2c(c1)OCO2)N1CCN(c2ccc(F)cc2)CC1 (stereo not given)	u
O=c1cc(COc2cccc(C(F)(F)F)c2)nc2sc3c(n12)CCCC3	-6%
CC(C)c1nc2sc3c(N4CCCCC4)ncnc3c2c2c1CCCC2	1%
Cc1cccc(NC(=O)C2CCN(S(=O)(=O)c3ccc4[nH]c5c(c4c3)CCCCC5)CC2)c1	26%
COc1ccccc1CNC(=O)c1cc2c(=O)oc3ccc(C)cc3c2s1	-2%
Cc1cccc2sc(N(Cc3cccnc3)C(=O)CCOc3ccccc3)nc12	0%
CCn1c(C(=O)NCc2ccc(C)cc2)cc2sc(Cl)cc21	9%
CC(=O)Nc1nonc1-c1nnc(SCc2ccc(Cl)cc2)n1C	-5%
O=c1cc(-c2ccccc2)n2c(SCc3ccc(Br)cc3)nnc2[nH]1	-2%
Continued.
SMILES	miR-21 FLuc
O=c1oc2ccccc2cc1-c1nc(-c2cccc(Cl)c2)cs1	0%
Cc1ccc(Nc2cc(C)nc3nc(Cc4ccc(Cl)cc4)nn23)cc1	11%
O=C(CCN1C(=O)/C(=C\c2ccccc2F)SC1=S)Nc1ccc(C(=O)O)c(O)c1	-3%
COc1ccc(C(=O)Nc2cccc(OCc3cc(=O)n4c5c(sc4n3)CCCC5)c2)cc1OC	-21%
CCCCOc1ccc(C(=O)NCc2cn3cccc(C)c3n2)cc1	-11%
Cc1cccc(OCc2ccc(-c3nc(C#N)c(NCc4cccnc4)o3)o2)c1	u
CCOc1cc(CNc2ccc(O)cc2)ccc1OCc1ccc(Cl)cc1	-12%
COc1ccccc1NC(=O)CCn1c(=O)oc2cc(Cl)ccc21	-9%
CCOc1cc(CNc2ccc(C(=O)O)cc2)ccc1OCc1ccccc1	-19%
O=C(NCCc1ccc(F)cc1)C(=O)NCC(c1cccs1)S(=O)(=O)c1ccc(F)cc1 (stereo not given)	23%
Cn1cc(S(=O)(=O)N2CCCCCC2)cc1C(=O)N1CCN(c2ccccc2F)CC1	-2%
COc1ccc(S(=O)(=O)NCC(c2ccc(N(C)C)cc2)N2CCCC2)cc1F (stereo not given)	0%
CCCCOc1ccc(-c2nonc2NC(=O)c2ccco2)cc1	5%
O=C(CCS(=O)(=O)c1cccc2nonc12)Nc1cccc(F)c1	7%
Oc1c(C(c2ccccc2F)N2CCCCC2)sc2nc(-c3ccco3)nn12 (stereo not given)	-4%
CCOc1ccc(Nc2oc(/C=C/c3cc(OC)c(OC)c(OC)c3)nc2C#N)cc1	28%
O=C1Nc2cc(C(=O)N3CCN(c4ccccc4F)CC3)ccc2NC1CSCc1ccccc1F (stereo not given)	3%
Cc1ccc(Cl)cc1N1CCN(CCCNC(=O)c2nnc(Cc3cccc(Cl)c3)o2)CC1	u
CN1CCN(c2nc(-c3ccc(Cl)c(Cl)c3)nc3ccccc23)CC1	-8%
COc1ccc(OC)c(S(=O)(=O)N2Cc3ccccc3CC2C(=O)Nc2ccc(C)cc2C)c1 (stereo not given)	0%
COCCNC(=O)CCCn1c(SCc2ccccc2C)nc2c(sc3ccccc32)c1=O	16%
Cc1c(CCC(=O)NCc2cccc(Cl)c2)c(=O)oc2c(C)c(O)ccc12	-25%
CCn1c(=O)c2cc(C(=O)N(C)c3cc(C)ccc3C)sc2c2ccccc21	-8%
Cc1ccc2oc(C(=O)Nc3ccc(S(=O)(=O)N(C)c4ccccc4)cc3)cc(=O)c2c1	1%
Cc1ccc(-c2nc(-c3cccs3)c(-c3cccs3)[nH]2)cc1	22%

Some of these compounds in order of number of heavy atoms, rising:
SMILES	miR-21 FLuc
COc1ccccc1NC(=O)CCn1c(=O)oc2cc(Cl)ccc21	-9%
CCOc1cc(CNc2ccc(C(=O)O)cc2)ccc1OCc1ccccc1	-19%
COc1ccc(S(=O)(=O)NCC(c2ccc(N(C)C)cc2)N2CCCC2)cc1F (stereo not given)	0%
O=C(CCN1C(=O)/C(=C\c2ccccc2F)SC1=S)Nc1ccc(C(=O)O)c(O)c1	-3%
CCOc1ccc(Nc2oc(/C=C/c3cc(OC)c(OC)c(OC)c3)nc2C#N)cc1	28%
COCCNC(=O)CCCn1c(SCc2ccccc2C)nc2c(sc3ccccc32)c1=O	16%
O=C1Nc2cc(C(=O)N3CCN(c4ccccc4F)CC3)ccc2NC1CSCc1ccccc1F (stereo not given)	3%

Returning to the listing, starting 5 compounds before the break.
SMILES	miR-21 FLuc
COCCNC(=O)CCCn1c(SCc2ccccc2C)nc2c(sc3ccccc32)c1=O	16%
Cc1c(CCC(=O)NCc2cccc(Cl)c2)c(=O)oc2c(C)c(O)ccc12	-25%
CCn1c(=O)c2cc(C(=O)N(C)c3cc(C)ccc3C)sc2c2ccccc21	-8%
Cc1ccc2oc(C(=O)Nc3ccc(S(=O)(=O)N(C)c4ccccc4)cc3)cc(=O)c2c1	1%
Cc1ccc(-c2nc(-c3cccs3)c(-c3cccs3)[nH]2)cc1	22%
CCOc1ccccc1NC(=O)CSc1nc2c(oc3ccccc32)c(=O)n1C(C)C	-4%
COc1ccccc1N(CC(=O)Nc1ccccc1F)S(C)(=O)=O	3%
CCc1ccc(NC(=O)C2CCN(c3nnc(-n4c(C)ccc4C)s3)CC2)cc1	13%
CCOC(=O)c1ccccc1NC(=O)CN1C(=O)CC(c2ccccc2)Sc2ccccc21 (stereo not given)	17%
Cc1ccc(-n2ncc3c(NCCC4=CCCCC4)ncnc32)cc1	-47%
CCCc1nccn1S(=O)(=O)c1cc(Br)ccc1OC	-12%
Cc1ccc(S(=O)(=O)c2nc(-c3cccs3)oc2SCC(=O)Nc2cc(C)cc(C)c2)cc1	26%
COc1ccccc1CNC(=O)C(=O)NCC(c1ccc2c(c1)OCO2)N1CCOCC1 (stereo not given)	2%
COc1ccccc1-c1nnc(SCCOc2ccccc2C)o1	-17%
